# Screening data from PubChem BioAssay.
# Beta apoptosis – blocks beta cell apoptosis | protection from apoptosis, % (no concentration beside the values) | 300,000 tested, 0.8% active | INS-1E cytokine-induced death, ATP luminescence, 48 h; percent of positive-control rescue, neutral wells zero;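 active = all replicates at 75% or more, or half of them and the mean; inconclusive = half reach 75% but not the mean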;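 note: 0% = cytokine-treated negative control wells and 100% = positive control rescue; higher means more ATP so stronger rescue from cytokine killing; wells of about 40 µL received 100 nL stock; the first replicate is given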
# LANA-H2B inh – blocks KSHV LANA binding to histone H2A/H2B; Q9QR71; cell-free LANA-H2A/H2B peptide, fluorescence polarization; inhibition, % (no concentration beside the values); 320,000 tested, 0.6% active; in the data active = inhibition mostly above about 10%, no sharp cut-off; inactive = mostly below about 6.7%;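 note: stock transfer was 7.5 nL into about 10 µL; 0% = median of vehicle wells and 100% = median of positive control wells; one replicate is shown; the record names a cut of 25% in any replicate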
# Target sequence (Q9QR71 whole entry, looked up): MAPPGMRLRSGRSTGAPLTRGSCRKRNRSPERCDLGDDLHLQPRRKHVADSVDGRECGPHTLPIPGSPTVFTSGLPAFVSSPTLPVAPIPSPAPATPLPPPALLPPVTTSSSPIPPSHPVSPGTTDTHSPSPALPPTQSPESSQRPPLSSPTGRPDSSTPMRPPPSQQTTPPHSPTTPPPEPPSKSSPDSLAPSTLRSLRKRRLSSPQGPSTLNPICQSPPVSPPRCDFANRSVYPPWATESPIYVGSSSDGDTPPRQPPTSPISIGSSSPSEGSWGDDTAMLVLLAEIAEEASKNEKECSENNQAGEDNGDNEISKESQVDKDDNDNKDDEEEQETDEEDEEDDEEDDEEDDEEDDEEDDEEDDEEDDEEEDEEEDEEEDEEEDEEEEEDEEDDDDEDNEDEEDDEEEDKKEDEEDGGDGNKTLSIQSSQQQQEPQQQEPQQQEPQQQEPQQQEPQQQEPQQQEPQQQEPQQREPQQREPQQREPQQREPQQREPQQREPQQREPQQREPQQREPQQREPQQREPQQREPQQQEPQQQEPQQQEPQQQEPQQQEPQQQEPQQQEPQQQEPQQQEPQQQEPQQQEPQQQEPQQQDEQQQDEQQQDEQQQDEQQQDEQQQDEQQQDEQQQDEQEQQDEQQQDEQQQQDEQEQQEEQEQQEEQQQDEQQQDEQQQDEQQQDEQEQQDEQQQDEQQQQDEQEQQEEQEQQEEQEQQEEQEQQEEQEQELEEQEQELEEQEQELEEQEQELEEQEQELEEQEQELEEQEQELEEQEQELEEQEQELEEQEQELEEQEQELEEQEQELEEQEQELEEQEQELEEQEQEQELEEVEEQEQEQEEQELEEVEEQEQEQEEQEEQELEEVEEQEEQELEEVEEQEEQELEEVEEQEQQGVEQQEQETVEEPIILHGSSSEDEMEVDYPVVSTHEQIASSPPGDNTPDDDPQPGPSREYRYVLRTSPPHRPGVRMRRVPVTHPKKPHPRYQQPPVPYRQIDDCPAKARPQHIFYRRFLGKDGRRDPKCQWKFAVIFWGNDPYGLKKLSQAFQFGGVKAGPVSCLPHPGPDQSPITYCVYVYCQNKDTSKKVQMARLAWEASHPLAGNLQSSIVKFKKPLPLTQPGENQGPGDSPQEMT
# RanGTP-Impb inh – disruptors of Ran-importin-beta complex formation – biochemical, FRET, CFP-Ran, YFP-importin-beta, homogeneous, primary screen; cell-free CFP-Ran/YFP-importin-beta FRET ratio; inhibition, % (test concentration not listed); 300,000 tested, 1.1% active;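 active = most replicates above 15%; inconclusive = exactly half above 15%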;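 note: 0% = DMSO wells and 100% = Ran loaded with GDP instead of GTP; wells of about 40 µL received 100 nL stock; the first replicate is given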
# UCH37 inh – human UCH37 deubiquitinating enzyme inhibition | Q9Y5K5 | 330,000 tested, 0.33% active | inhibition, % (no concentration beside the values) | purified proteasome/UCH37, Ub-AMC cleavage fluorescence;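 active = mean of two replicates above 20%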;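 note: 0% = compound-free wells with enzyme and 100% = wells lacking proteasome; stock transfer was 100 nL into about 20 µL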
#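 Material: human UCH37 enzyme supplied as purified proteasome complex / Amount: 0.15 nM proteasome as dispensed / Buffer or medium: pH 7.4 Tris-HCl (50 mM) with ovalbumin, ATP-MgCl2, DTT / Times: preincubation 30 min, reaction 25 min, room temperature / Technique: AMC fluorescence from Ub-AMC cleavage, excitation 355 nm, emission 460 nm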
# Calb FLC – C. albicans growth modulation with fluconazole; C. albicans CaCi-2 (fluconazole-resistant clinical isolate) + fluconazole, Alamar Blue growth, 48 h; growth inhibition, % (test concentration not listed); 300,000 tested, 0.57% active; AID 1979;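 active = most replicates above 75%; inconclusive = exactly half above 75%; inactive = most below 75%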;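 note: all wells also contain fluconazole at 8 µg/ml as a sub-toxic cotreatment; 0% = median of DMSO wells and 100% = median of geldanamycin control wells; wells of about 8 µL received 7.5 nL stock; the first replicate is given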
# T cruzi repl – blocks replication of Trypanosoma cruzi. T. cruzi beta-gal in NIH3T3, luminescence, 90 h. inhibition, % (concentration not given with the values). 300,000 tested, 1.4% active;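 active = mean inhibition across valid replicates above about 55%, limit read from the data; inconclusive = mean below that limit but half or more replicates reach it; inactive = mean below it, under half of replicates reach it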;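 note: signal also drops with host cell toxicity which is not excluded here; 0% = plate median of DMSO wells and 100% = zero luminescence signal; higher percent means less beta-gal luminescence so fewer parasites; stock transfer was 50 nL into about 50 µL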
# Bfl-1 A1 inh – inhibitors of the anti-apoptotic protein A1, read as caspase activation; MEF A1-2A-BIM cells, Caspase-Glo 3/7 luminescence, 3 h; percent of clofoctol response, vehicle zero; caspase activation, % (no concentration beside the values); 330,000 tested, 0.066% active; AID 2462;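 active = over half of replicate activation scores above 10%, or exactly half above 10 with the replicate mean above 10; inconclusive = replicate mean below 10 yet half the replicates above 10; inactive = over half of replicates below 10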;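 note: wells of about 30 µL received 50 nL stock; many hits fall short of the cut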
# B2AR ag – human beta-2 adrenergic receptor agonism by FAP. P07550. Am2.2-beta2AR cells, FAP receptor internalization, flow cytometry; reference of the scale not given here. response, % (concentration not given with the values). 340,000 tested, 0.43% active. AID 504454;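 active = response above a set limit, near 3 SD of response in nonfluorescent compounds, cut at about 42% in these data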;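 note: stock transfer was 100 nL into about 11 µL; a reference agonist was the positive control; negative values mostly stem from fluorescent compounds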
# The depositor's hits bear a star; ? = inconclusive; . = not tested or not shown.
item | SMILES | Beta apoptosis | LANA-H2B inh | RanGTP-Impb inh | UCH37 inh
1 | Cc1ccccc1NC1=C/C(=N\S(=O)(=O)c2ccc(C(=O)O)cc2)c2ccccc2C1=O | 107* | 1.3 | 1.2 | 94*
2 | CCN1C(=O)N(c2ccc(Cl)cc2)C(C)=CC1(C)C | 1 | 6.9 | -1.3 | 1.4
3 | COc1ccc(CNC(=O)CN2C(=O)c3ccccc3C2=O)cc1 | -7 | 1.5 | 1.7 | 5.5
4 | CCN(CC)CC(=O)Nc1ccc(Oc2ccc(NC(=O)CN(CC)CC)cc2)cc1 | . | 3.2 | 1.8 | 1.2
5 | CC1=C(C(=O)Nc2ccccc2)C2(CCCCC2)C(C#N)=C(SCC(N)=O)N1 | . | 0.0 | 1.6 | 4.1
6 | O=C(/C=C/c1ccccc1)NC(NC(=S)Nc1cccc(O)c1)C(Cl)(Cl)Cl (stereo not given) | 4 | -4.6 | -0.1 | 5.1
7 | Cc1ccc(S(=O)(=O)N(C)/N=C2/C(=O)N(CC(=O)O)c3ccccc32)cc1 | -6 | 5.5 | 3.7 | .
8 | CNC(=O)c1cc(C)c(-c2ccccc2)s1 | 9 | -6.4 | 7.9 | -3.1
9 | COC(=O)C1=C(C)NC(=O)C1(NS(=O)(=O)c1ccc(C)cc1)C(F)(F)F (stereo not given) | -4 | -0.1 | ? | 5.1
10 | CCOc1ccc(N2C(=O)CS/C2=N/NC(=O)COc2ccc3ccccc3c2)cc1 | -2 | 3.7 | -6.5 | .
11 | O=c1[nH]c(/C=C/c2ccccc2[N+](=O)[O-])nc2ccccc12 | 5 | 2.2 | 1.1 | .
12 | O=C(Cn1cc(C(=O)c2ccco2)c2ccccc21)NC1CCCC1 | -9 | -3.4 | -2.2 | 7.1

item | Calb FLC | T cruzi repl | Bfl-1 A1 inh | B2AR ag
1 | 32 | 42 | -0.5 | 17
2 | 4 | -7 | 0.3 | 2
3 | . | -9 | -2.0 | 6
4 | -3 | 30 | 1.3 | 6
5 | -1 | 8 | 0.6 | -1
6 | 13 | 2 | 0.0 | 0
7 | 0 | -8 | -0.7 | -6
8 | -35 | -1 | -0.3 | 0
9 | -42 | -8 | 0.9 | -2
10 | -10 | 4 | -0.2 | -5
11 | 5 | -17 | -0.3 | 8
12 | 45 | -1 | -0.3 | -3

# (further entries)
item | SMILES | Beta apoptosis | LANA-H2B inh | RanGTP-Impb inh | UCH37 inh
13 | O=C(NCC(c1ccco1)N1CCN(c2ccccc2F)CC1)C1CCCCC1 (stereo not given) | . | 2.0 | 0.2 | 4.8
14 | CCOC(=O)c1cc(S(=O)(=O)N2CCCC2)cn1C | -6 | 3.4 | 1.6 | 3.4
15 | Cc1ccccc1Nc1c(-c2ccncc2)nc2ccc(Br)cn12 | -6 | 0.5 | 5.3 | -5.7
16 | COC(=O)c1ccc(Oc2coc3cc(OCc4cnn(-c5ccccc5)c4)ccc3c2=O)cc1 | 14 | 0.8 | -0.1 | 6.3
17 | Cc1cccc(OCCC(=O)Nc2cc(S(=O)(=O)N3CCCCC3)ccc2N2CCOCC2)c1 | 4 | -2.5 | 1.8 | 2.2
18 | Cc1cc(NC(=O)CSc2nc3ccccc3c(=O)n2-c2ccccc2)no1 | 4 | -0.6 | 4.5 | -2.7
19 | COc1ccc2[nH]c(=O)c(CN(CCc3ccccc3)C(C)=O)cc2c1 | 4 | 2.3 | 4.1 | -81
20 | CCN(CC)CCNc1c2c(c(C#N)c3nc4ccccc4n13)CCCC2 | . | 5.4 | ? | -20
21 | CC1CN(C(=O)c2ccc(OC3CCN(Cc4ccccn4)CC3)cc2)CCN1C (stereo not given) | -6 | -4.3 | 3.9 | .
22 | Cc1ccc(S(=O)(=O)N2CCC(C(=O)OCC(=O)N(CCC#N)c3ccc(F)cc3)CC2)cc1C | . | -0.7 | 2.9 | 1.2
23 | CCc1ccc(CN(C)C(C)C(=O)NCc2ccccc2)cc1 (stereo not given) | 5 | 3.4 | -2.3 | 3.1
24 | CC(NC(N)=O)C(=O)Nc1ccc(Cl)c(S(=O)(=O)Nc2ccc(Cl)cc2)c1 (stereo not given) | 2 | 0.3 | 1.6 | 2.0

item | Calb FLC | T cruzi repl | Bfl-1 A1 inh | B2AR ag
13 | 3 | 15 | 0.4 | -9
14 | 6 | -23 | 0.5 | -9
15 | 13 | 59* | 0.0 | -13
16 | 9 | -15 | 1.1 | 1
17 | -14 | 17 | 0.8 | -9
18 | -3 | -9 | 0.4 | -7
19 | 3 | 18 | -0.5 | 5
20 | 24 | 63* | -0.3 | 6
21 | 7 | -8 | -0.3 | 37
22 | -9 | -1 | 2.0 | -3
23 | 1 | 8 | 1.6 | -8
24 | 7 | 7 | -0.6 | -5

# An excerpt from above in order of count of non-hydrogen atoms, largest number first.
item | SMILES | Beta apoptosis | LANA-H2B inh | RanGTP-Impb inh | UCH37 inh
16 | COC(=O)c1ccc(Oc2coc3cc(OCc4cnn(-c5ccccc5)c4)ccc3c2=O)cc1 | 14 | 0.8 | -0.1 | 6.3
17 | Cc1cccc(OCCC(=O)Nc2cc(S(=O)(=O)N3CCCCC3)ccc2N2CCOCC2)c1 | 4 | -2.5 | 1.8 | 2.2
24 | CC(NC(N)=O)C(=O)Nc1ccc(Cl)c(S(=O)(=O)Nc2ccc(Cl)cc2)c1 (stereo not given) | 2 | 0.3 | 1.6 | 2.0
12 | O=C(Cn1cc(C(=O)c2ccco2)c2ccccc21)NC1CCCC1 | -9 | -3.4 | -2.2 | 7.1

item | Calb FLC | T cruzi repl | Bfl-1 A1 inh | B2AR ag
16 | 9 | -15 | 1.1 | 1
17 | -14 | 17 | 0.8 | -9
24 | 7 | 7 | -0.6 | -5
12 | 45 | -1 | -0.3 | -3

# New compounds follow:
item | SMILES | Beta apoptosis | LANA-H2B inh | RanGTP-Impb inh | UCH37 inh
25 | CCCn1c2c(c(O)c(C(=O)Nc3ncccc3O)c1=O)CCCC2 | 1 | -7.6 | 1.0 | -2.2
26 | Cn1nnnc1Sc1ncnc2scc(-c3ccc4c(c3)OCO4)c12 | -5 | 2.8 | . | 1.5
27 | Cc1ccc2cc(CN(Cc3nnnn3C3CCCCC3)CC3CCCO3)c(=O)[nH]c2c1 (stereo not given) | -1 | -2.9 | -2.4 | -1.4
28 | O=C(Cc1n[nH]c(=O)[nH]c1=O)N/N=C/CCc1ccccc1 | -4 | 2.9 | ? | .

item | Calb FLC | T cruzi repl | Bfl-1 A1 inh | B2AR ag
25 | -5 | 8 | 0.3 | -14
26 | . | . | -0.1 | 12
27 | -5 | 32 | 1.6 | -15
28 | -19 | 1 | -3.7 | 2

# Compound profiles, as listed above:
# `Cc1ccc2cc(CN(Cc3nnnn3C3CCCCC3)CC3CCCO3)c(=O)[nH]c2c1` (stereo not given) as listed: Beta apoptosis: -1; LANA-H2B inh: -2.9; RanGTP-Impb inh: -2.4; UCH37 inh: -1.4; Calb FLC: -5; T cruzi repl: 32; Bfl-1 A1 inh: 1.6; B2AR ag: -15
# `Cn1nnnc1Sc1ncnc2scc(-c3ccc4c(c3)OCO4)c12` as listed: Beta apoptosis: -5; LANA-H2B inh: 2.8; RanGTP-Impb inh: .; UCH37 inh: 1.5; Calb FLC: .; T cruzi repl: .; Bfl-1 A1 inh: -0.1; B2AR ag: 12
